Bst PK mod = Pyruvate Kinase | partly purified Bacillus stearothermophilus pyruvate kinase, luminescence ATP production; ribose 5-phosphate activator present at AC10 | Potency, µM | hit rate 1.2% among 51,000; in the data active means potency below about 11 µM; inconclusive means mostly about 12 µM to 25 µM; inactive means weaker than that;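 the screen sought inhibitors and activators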;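 note: potency is the fitted concentration of half-maximal effect; scaled between full activation by ribose 5 phosphate and full inhibition by luteolin; about four in five hits inhibit and the cells do not say which; series up to 57 µM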
YjeE inh = qHTS Assay for Inhibitors of YjeE; purified YjeE, fluorescence polarisation of a bound ADP probe; Potency, µM; hit rate 0.05% among 71,000; AID 605, 2007; active = well fitted falling curve; inconclusive = weaker or top-dose-only fall, or a rising curve; inactive = flat or poorly fitted curve;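 note: top concentration of the series not given in the record; excess ADP was the control for the full effect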
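Fluorescence polarization of a BODIPY Texas Red–ADP probe (2 uM) bound to purified YjeE (10 uM) was read after 15 min room-temperature incubation with compounds. Loss of polarization marks inhibitors; ADP serves as titrated control.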
* hit, by the source's call; i = inactive; ? = inconclusive; . = no result given.

The line under a structure holds: Bst PK mod	YjeE inh
> CCn1cnc2c1c(=O)n(CC(=O)N1CCc3ccccc31)c(=O)n2Cc1ccccc1
 : >57	i
> O=C1CCCc2c1nc(-c1ccco1)n2O
 : >57	i
> CCCNC(=O)Nc1ccccc1C(=O)Nc1ccc(OC)cc1
 : >57	i
> CCN1CCN(CC(=O)Nc2sc3c(c2C#N)CCC(C)C3)CC1 (stereo not drawn)
 : >57	i
> CCSc1nnc(Cc2cc(=O)[nH]c(=O)[nH]2)n1-c1cc(C)ccc1C
 : >57	i
> CCCCc1c(O)nc(N2CCN(Cc3ccccc3)CC2)[nH]c1=O
 : >57	i
> CCOc1ncccc1C(=O)OCC(=O)NCCc1ccc(OC)cc1
 : >57	i
> COC(=O)c1cc(=O)n2c(-c3ccc(OC)cc3)csc2n1
 : >26	.
> O=C(NCCCN1CCOCC1)c1c(O)c2ccccc2[nH]c1=O
 : >57	i
> CC(=O)Nc1ccc(NC(=O)Cn2cnc3c(cnn3C(C)(C)C)c2=O)cc1
 : >57	i
> COC(=O)c1ccc(NC(=O)C(C)N2C(=O)c3ccccc3C2=O)cc1 (stereo not drawn)
 : >57	i
> N#Cc1ccc(CSc2nnc(NC(=O)C3CCCO3)s2)cc1 (stereo not drawn)
 : >57	i
> Cc1ccc2[nH]c(CCN(C)C)c(CC#N)c2c1
 : >26	.
> COc1ccccc1S(=O)(=O)Cc1ccc(C(=O)NC(C)c2ccc3c(c2)OCCO3)o1 (stereo not drawn)
 : >57	i
> C=CCNc1nc2ccccc2nc1NS(=O)(=O)c1cccs1
 : >57	i
> O=C(CSc1nnc(COc2cccc3cccnc23)o1)c1ccc(F)cc1
 : 10*	i
> COc1cccc(C2CC(c3ccc(Cl)cc3)Nc3nc(N)nn32)c1 (stereo not drawn)
 : .	i
> c1cc2c(cc1Cn1cnnn1)OCO2
 : >57	i
> C[C@](O)(C(=O)Nc1ccc(S(=O)(=O)c2ccccc2)cc1)C(F)(F)F
 : .	i
> Cn1cccc1CNC(=O)Nc1ccc(Cl)c(Cl)c1
 : >57	i
> CCn1c(SCC(=O)Nc2ccc3c(c2)OCO3)nnc1-c1cnccn1
 : >57	i
> C#CC1(O)CC(C)N(C)C(C)C1 (stereo not drawn)
 : >57	i
> CCCCN(CC)S(=O)(=O)c1ccc(C(=O)Nc2nnc(COC)o2)cc1
 : >57	i
> COC(=O)c1ccc(C(NC(=O)OCc2ccccc2)/C(C)=C/[C@@H](C)C(=O)NCc2nn(-c3ccccc3)nc2C)cc1 (stereo partly drawn)
 : .	i
> CCOc1cc(C(=O)OCc2ccc(C(=O)OC)o2)cc(Br)c1OC
 : >57	i
> O=C(c1ccco1)N1CCC2(CCCN(Cc3ccncc3)C2)CC1
 : .	i
> O=S(=O)(NCC(c1ccccc1)N1CCNCC1)c1ccc(Cl)cc1 (stereo not drawn)
 : .	i
> Cc1cc(C)n(-c2nc3ccccc3c(=O)n2OCc2ccc(F)cc2)n1
 : >57	i
> CCCC(=O)Nc1ccc(Cl)c(NC(=O)C(C)(C)C)c1
 : >57	i
> COc1ccccc1Nc1nc(N)nc(CSc2ncccn2)n1
 : >57	i
> CCOC(=O)N1CCN(c2cc(=O)n(-c3ccc(OC)cc3)c(=O)[nH]2)CC1
 : >57	i
> COc1ccc(-n2c(=O)c(-c3cccc(Cl)c3)nc3cncnc32)cc1
 : .	i
> Cc1ccc(NC(=O)C2(N(C(=O)Cn3nnnc3N)c3ccc(C)cc3)CCCCC2)cc1
 : >57	i
> Cn1c(COc2ccc3ccccc3c2)nnc1SCC(N)=O
 : >57	i
> CCCS(=O)(=O)N1CCCC(C(=O)NCCN(CC)CC)C1 (stereo not drawn)
 : >57	i
> CCOc1ccc(N2C(=O)c3cccnc3C2Nc2ccc(C)cc2)cc1 (stereo not drawn)
 : >57	i
> O=C(Nc1cccc(Cl)c1)c1ccncc1
 : >57	i
> Cc1ccoc1C(=O)NCc1occc1C(=O)O
 : .	i
> CCOC(=O)c1c(C)c(C(=O)NC(C)COC)c(C)n1CC (stereo not drawn)
 : >57	i
> c1ccc(N2CCCCC2)c(NC2=NCCC2)c1
 : >57	i
> NS(=O)(=O)c1ccc(CNC(=O)NC23CC4CC(CC(C4)C2)C3)cc1
 : >57	i
> Cn1c(C(=O)N2CCCC(C(=O)N3CCN(C(=O)c4ccco4)CC3)C2)cc2sccc21 (stereo not drawn)
 : .	i
> CCn1c(SCc2nc3ccccc3[nH]2)nnc1-c1cccs1
 : >57	i
> O=C(CCn1c(=O)oc2ccccc21)NCCCN1CCN(c2ccc(F)cc2)CC1
 : >57	i
> O=C(CCn1c(=O)oc2ccccc21)N1CCCCCC1
 : >57	i
> COc1ccc2sc(NC(=O)c3ccco3)nc2c1
 : 5.4*	i
> CCOC(=O)CNC(=O)c1nn(-c2ccc(OCC)cc2)c(=O)c2ccccc12
 : .	i
> COc1ccc(OCC2CNC(=O)O2)cc1 (stereo not drawn)
 : >57	i
> O=c1c(-c2cccs2)nc2cnc(Oc3cccc(Cl)c3)nc2n1C[C@H]1CCCO1
 : .	i
> COCCn1c(SCc2cccnc2)nnc1-c1ccco1
 : >57	i
> Cc1cc(C)cc(N2CC(c3nc4ccccc4n3C)CC2=O)c1 (stereo not drawn)
 : .	i
> COc1ccc(NC(=O)CC2CCCCC2)cc1OC
 : .	i
> COCCNc1nnc(SCC(=O)N2CCN(S(=O)(=O)c3ccccc3)CC2)s1
 : >57	i
> COc1cc(=O)n(C)c2cc(N(C)C)ccc12
 : 4.9*	i
> Cc1cc(O)c(NC(=O)c2ccco2)cc1C
 : >57	i
> O=C(CCc1ccc(CCC(=O)c2cccs2)s1)c1cccs1
 : >57	i
> CSc1nc2c(c(=O)n1-c1ccccc1)SCC2
 : >57	i
> COc1ccccc1N(CC(=O)N1CCCCCC1)S(C)(=O)=O
 : .	i
> CS(=O)(=O)N(CC(=O)N1CCN(Cc2ccc3c(c2)OCO3)CC1)c1ccc2c(c1)OCO2
 : >57	i
> O=C(O)COc1ccc2c(c1)CCCC2
 : .	i

3 consecutive compounds already listed, quoted:
The line under a structure holds: Bst PK mod	YjeE inh
> COc1ccccc1N(CC(=O)N1CCCCCC1)S(C)(=O)=O
 : .	i
> CS(=O)(=O)N(CC(=O)N1CCN(Cc2ccc3c(c2)OCO3)CC1)c1ccc2c(c1)OCO2
 : >57	i
> O=C(O)COc1ccc2c(c1)CCCC2
 : .	i

Later entries.
The line under a structure holds: Bst PK mod	YjeE inh
> Cc1ccc(NC(=O)N(Cc2ccco2)C(C)c2ccco2)cc1C (stereo not drawn)
 : >57	i
> O=C(Nc1nc2ccccc2n1CCN1CCCC1)C1CCCCC1
 : >57	i
> CCOC(=O)c1cnn(CCOC(=O)C2CC2)c1NC(=O)C1CC1
 : >57	i
> Cc1sc2nc(C3CC3)nc(NCCNS(C)(=O)=O)c2c1C
 : .	i
> COC(=O)c1cccc(NC(=O)CN2CCN(Cc3ccccc3)CC2)c1
 : >57	i
> O=C(CN(C1CCCCC1)S(=O)(=O)c1ccc(F)cc1)NC1CC1
 : .	i
> NC(=O)CS(=O)(=O)c1nc2ccccc2n1Cc1ccccc1F
 : >57	i
> O=C(CSc1nnc(-c2ccccc2)o1)c1nnc(-c2ccccc2)o1
 : >57	i
> C=CCNc1nc(C2(C)CC3(CC(C)OC3=O)C(=O)O2)cs1 (stereo not drawn)
 : .	i
> COc1ccc2c(c1OC)C(=O)N(c1ccccn1)C2
 : i	i
> COCC(=O)O[C@]1(CCN(C)CCCc2nc3ccccc3[nH]2)CCc2cc(F)ccc2[C@@H]1C(C)C
 : .	i
> COc1cc(C2N(c3ccccn3)C(=O)C3CCCN32)cc(OC)c1OC (stereo not drawn)
 : >57	i
> Cc1ccc(S(=O)(=O)NCCN=C(CN2CCCC2)NS(=O)(=O)c2ccc(C)cc2)cc1
 : >57	i
> O=C(Cc1c(O)c2ccccc2[nH]c1=O)NC1CCCCCCC1
 : >57	i
> NCCCCNCCCN
 : .	i
> COc1ccc(NC(=O)c2cc(-c3cc(C)cc(C)c3O)n[nH]2)cc1Cl
 : .	i
> COCCNC(=O)CN1C(=O)CC(C)(C)S(=O)(=O)c2ccccc21
 : .	i
> CCCCC(=O)NCCc1cc2c(C)ccc(C)c2[nH]c1=O
 : .	i
> Cn1c(Cn2c(=O)sc3ccccc32)nnc1SCC(=O)N1CCCc2ccccc21
 : .	i
> COc1ccc(-c2cn3c(C)c(C(=O)Nc4cc(NC(C)=O)ccc4OC)sc3n2)cc1
 : >57	i
> C[C@@H]1Oc2ccc(C(=O)C[C@@H](C(=O)O)c3ccc4c(c3)OCO4)cc2O1
 : .	i
> CCn1c(SCC(=O)OC2CCCCC2)nnc1-c1ccncc1
 : >57	i
> COCCN(CC(=O)NCc1ccc(F)cc1)C(=O)CCC(=O)Nc1ccccn1
 : >57	i
> O=C1NC(c2ccncc2)Nc2ccccc21 (stereo not drawn)
 : >57	i
> CCN(CC)CCCN1C(=O)C(=O)/C(=C(/O)c2cc(C)ccc2C)C1c1cccnc1 (stereo not drawn)
 : >57	i
> Cc1cccc(-c2noc(-c3ccccc3C(=O)NCC3CCCO3)n2)c1 (stereo not drawn)
 : .	i
> CSc1ccc(Cl)c(C(=O)OCC(=O)N2CCOCC2)c1
 : >57	i
> CC(=O)N1C=CN(C(C)=O)C(c2cn(C)c3ccccc23)C1c1cn(C)c2ccccc12 (stereo not drawn)
 : .	i
> CCOC(=O)c1cc(C(O)(C(F)(F)F)C(F)(F)F)c(/N=C/N(C)C)o1
 : >57	i
> CCN(Cc1cc2ccccc2[nH]c1=O)C(=O)C(C)C
 : >57	i
> O=C(O)C1CC(=O)N(Cc2ccc(F)cc2)C1 (stereo not drawn)
 : >57	i
> Cc1c(N=C2SCC(=O)N2c2c(C)n(C)n(-c3ccccc3)c2=O)c(=O)n(-c2ccccc2)n1C
 : >57	i
> CCOC(=O)C1CCN(CC(=O)Nc2c(C(=O)OC)[nH]c3cccc(Cl)c23)CC1
 : >57	i
> O=C(COC(=O)CCS(=O)(=O)c1ccc(Cl)cc1)Nc1ncc(Cl)cc1Cl
 : i	i
> Cn1c(=O)c2c(nc(CN3CCN(c4ccccc4F)CC3)n2CCN2CCOCC2)n(C)c1=O
 : >57	i
> Cc1[nH]c2ccccc2c1C(=O)CN1CCCCC1CCO (stereo not drawn)
 : >57	i
> CC(O)Cn1cnc2c1c(=O)n(C)c(=O)n2C (stereo not drawn)
 : >26	.
> COc1ccc(C(C)(C)C)cc1S(=O)(=O)N1CCN(C)CC1
 : >57	i
> CCCCC(=O)OCC(=O)Nc1ccc(OC(F)F)cc1
 : >57	i
> Cc1sc2nc(SCC(=O)c3cccs3)n(Cc3ccco3)c(=O)c2c1C
 : >57	i
> COc1ccc(-n2nnnc2SCC(=O)Nc2cccc(NC(C)=O)c2)cc1OC
 : >57	i
> CCO[P@]1(=O)OC[C@@H]2O[C@H](n3cnc4c(N)ncnc43)[C@H](O)[C@@H]2O1
 : .	i
> COCCn1c(=O)c(-c2cccs2)nc2cnc(OCc3ccccc3)nc21
 : .	i
> Cc1cc(C)c(NC(=O)CCCN2CCN(C)CC2)c(C)c1
 : >57	i
> OCCNc1ncnc2c1ncn2Cc1ccccc1
 : >57	i
> O=C(O)CC(C(=O)NCc1ccccc1)C1CCCO1 (stereo not drawn)
 : >57	i
> NCCC[C@@H](CC(=O)N[C@@H]1CCNC[C@H]1C(=O)N[C@H](CC(=O)N[C@@H](CCC(=O)O)CC(=O)O)Cc1c[nH]c2ccccc12)NC(=O)C[C@H](Cc1c[nH]c2ccccc12)NC(=O)[C@@H]1CCCC[C@H]1N
 : .	?
> COc1ccccc1-c1ccc2ncnc(N3CCNCC3)c2c1
 : .	i
> O=C(Cn1cccc1C(=O)c1ccccc1)NCCN1CCCCCC1
 : >57	i
> Cc1cc(=O)oc2c(CN(C)Cc3ccccc3)c(O)ccc12
 : >57	i
> CCOC(=O)c1c(N)nn(C(C)=O)c1-c1ccccc1
 : >57	i
> Cc1nc(=O)c(-c2ccccc2)c(C)n1-c1ccc(O)c(C(=O)O)c1
 : .	i
> COC(=O)c1sc2nc3c(cc2c1N)C(=O)CC(C)(C)C3
 : >57	i
> COc1ccc(CCNS(=O)(=O)c2ccc(S(=O)(=O)N3CCCC3)cc2)cc1OC
 : >57	i
> CCn1c(SCc2ccccc2)nnc1-c1ccc(S(=O)(=O)N2CCCCC2)cc1
 : >57	i
> S=c1[nH]nc(-c2ccncc2)n1Cc1ccco1
 : >57	i
> CSCSC1=C(C#N)C(c2ccc(Cl)cc2)C(C(C)=O)=C(C)N1 (stereo not drawn)
 : .	i
> COc1ccc(OC)c(NC(=O)COC(=O)c2ccc(S(=O)(=O)N3CCOCC3)cc2)c1
 : >57	i
> CS(=O)(=O)Nc1cccc(-c2nc(NCc3cccnc3)c3ccccc3n2)c1
 : .	i
> CCOC(=O)Cn1c(=O)oc2cc(S(=O)(=O)Nc3cc(Cl)ccc3OC)ccc21
 : .	i

More structures.
The line under a structure holds: Bst PK mod	YjeE inh
> O=C1CCCN1CCC1CCN(C2CC(=O)N(Cc3ccc(N4CCCC4=O)cc3)C2=O)CC1 (stereo not drawn)
 : >57	i
> CN(Cc1c(F)cccc1Cl)c1ccc(S(=O)(=O)N2CCOCC2)cn1
 : >57	i
> c1ccc(-c2ccc(N3CC[C@@]4(CCCNC4)C3)cc2)cc1
 : .	i
> CC1(C)OC(=O)N(c2ccccn2)C1(C)O (stereo not drawn)
 : >57	i

Gathered by group, the compounds so far with a CF3 group
The line under a structure holds: Bst PK mod	YjeE inh
> C[C@](O)(C(=O)Nc1ccc(S(=O)(=O)c2ccccc2)cc1)C(F)(F)F
 : .	i
> CCOC(=O)c1cc(C(O)(C(F)(F)F)C(F)(F)F)c(/N=C/N(C)C)o1
 : >57	i

These rows are one share of the data, so the mix of outcomes need not match the whole.
